# Screening results (PubChem BioAssay)
# BRCT PPI green = inhibitors of human BRCA1 BRCT-phosphoprotein interaction (green fluorophore) | Potency, µM (top dose mostly 76.9 µM), for the others: top-dose activity change, negative = inhibition, hits mostly inhibitors | P38398 | 75,000 compounds, 0.05% hits | BRCA1 BRCT-phosphopeptide binding, green fluorescence polarization;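 also: potency is read from the fitted curve at half-maximal effect; plate controls were peptide without protein for full effect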
#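 Fluorescence polarization: His-tagged BRCT (~35 kDa BRCA1 C-terminus, 250 nM) bound to 100 nM fluorescein-labeled phosphorylated 10-aa BACH1 peptide, pH 7.3 phosphate buffer with DTT and Tween 20. Compounds incubated 12 min at room temperature; inhibition read as lowered polarization.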
# BRCT PPI red = BRCT-phosphoprotein interaction inhibition (red fluorophore) | P38398 | Potency, µM (top dose mostly 76.9 µM), for inactives: at the highest dose activity change, negative = inhibition, usual class: inhibitors | AID 892 | 75,000 compounds, 0.03% hits | BRCT-phosphopeptide binding, red fluorescence polarization; also: % is scaled to controls: 0 for no effect and ±100 for the full control effect
#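 Fluorescence polarization: 100 nM His-tagged BRCA1 BRCT with 100 nM TAMRA-labelled phospho-BACH1 decapeptide, phosphate buffer pH 7.3 with 150 mM NaCl, DTT, 0.01% Tween 20; 12 min RT. Binding inhibition seen as FP decrease.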
# Fluorescein autfl = compound autofluorescence in fluorescein spectral region; Compound autofluorescence, 480/540 nm, fluorescein-equivalent; stronger effect = higher value; max fluorescein-equivalent concentration, M; 59,000 compounds, 0.91% hits; in the data active = max fluorescein-equivalent concentration above about 10 nM; inconclusive = between about 1.1 nM and that limit
#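 Spectral profiling of library compounds in the fluorescein window (480 nm excitation, 540 nm emission) after 15 min at room temperature in pH 8.0 Tris (100 mM). Values are dye-equivalent concentrations.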
# UbGFP stabilizer = inhibits proteasome, raising ubiquitin-GFP reporter fluorescence; Ubiquitin-GFP reporter cells, proteasome inhibition, GFP fluorescence; response scale: untreated = 0%, 10 µM MG-132 = 100%; 67,000 tested, under 10 active; AID 526; Potency, µM (titrated, usually from 45.9 µM), for the others: at the highest dose activation (GFP accumulation), most hits filed as activators; active = well fitted activation curve with a large enough effect, not every such curve was filed as active; inconclusive = small, poorly fitted or top-dose-only effect, or another doubt; inactive = no such curve, though single readings can be large or run the other way; also: potency is read from the fitted curve at half-maximal effect
#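 Proteasome block read as GFP accumulation: ubiquitin(G76V)-GFP U2OS cells exposed to compound (2.9 nM–46 uM) for 4 hr at 37 C. Normalization used untreated cells as 0% and 10 uM MG-132 as 100%; concentration-response curves fitted.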
# USP2a inhib = inhibitors of human ubiquitin-specific protease USP2a. O75604. USP2a enzymatic assay, qHTS inhibition. Potency, µM (top dose mostly 38.3 µM), without a hit: top-dose activity change, negative = inhibition, actives largely listed as inhibitors. 60,000 compounds, 0.1% hits. AID 927;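 also: potency is read from the fitted curve at half-maximal effect; nearly all actives have a fitted effect of over 60% in size; plate controls were DMSO for no effect and NEM full inhibition control for full effect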
# Target sequence (O75604 whole entry, looked up): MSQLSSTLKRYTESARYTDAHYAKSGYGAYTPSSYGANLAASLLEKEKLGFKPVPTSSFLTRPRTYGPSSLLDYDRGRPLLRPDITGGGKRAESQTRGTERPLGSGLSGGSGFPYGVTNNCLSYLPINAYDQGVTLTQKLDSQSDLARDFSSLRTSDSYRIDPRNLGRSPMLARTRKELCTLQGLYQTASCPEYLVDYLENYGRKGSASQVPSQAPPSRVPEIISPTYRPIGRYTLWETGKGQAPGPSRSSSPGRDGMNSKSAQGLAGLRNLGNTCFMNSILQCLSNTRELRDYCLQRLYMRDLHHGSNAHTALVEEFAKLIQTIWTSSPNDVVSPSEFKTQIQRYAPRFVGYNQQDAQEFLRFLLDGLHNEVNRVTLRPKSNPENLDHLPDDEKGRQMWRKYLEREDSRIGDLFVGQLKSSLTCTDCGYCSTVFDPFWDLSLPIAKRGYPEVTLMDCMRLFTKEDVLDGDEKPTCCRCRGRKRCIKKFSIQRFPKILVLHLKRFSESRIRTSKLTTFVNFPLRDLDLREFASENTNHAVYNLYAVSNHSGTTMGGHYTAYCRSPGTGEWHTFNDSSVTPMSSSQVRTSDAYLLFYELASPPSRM
#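 Coupled readout: USP2-cleaved Ub-PLA2 (20nM final) turns over NBD C6-HPC (20uM final), Ex 460nm/Em 535nm after 2.5 h, time-zero read flagging artifacts. Enzyme (20nM final, pH 8.0 Tris) given 30 min RT with compound first; NEM defines full inhibition.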
# HEK293 cAMP cs = parental HEK293 cAMP activation (counter-screen); Potency, µM (top dose mostly 57.1 µM), without a hit: top-dose activation, usual class: activators; AID 938; 73,000 compounds, 2.5% hits; parental HEK293 CNG cAMP sensor, membrane potential fluorescence; also: potency is read from the fitted curve at half-maximal effect; % of control where 0% means no effect; nearly all actives have a fitted effect of over 55% in size
#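 Counterscreen for endogenous-receptor signalling: CNG-channel HEK 293 cells report cAMP rise by membrane depolarization. After 60 min dye equilibration with 100 uM RO 20-1724, compounds incubated 30 min before bottom-read fluorescence at 590 nm.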
# GFP derepression = epigenetic GFP locus derepression in mouse cells; mouse C127i GFP locus derepression, cytometry, 30 h; Potency, µM (highest dose often 46.1 µM), without a hit: at the highest dose GFP derepression (activation); 68,000 compounds, 0.09% hits; also: % of control where 0% means no effect
#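 Locus derepression in mouse mammary C127i cells whose integrated CMV-GFP reporter is normally silent; GFP expression after 30 h compound treatment was quantified by counting fluorescent cells.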
# Active calls of the source: *; i = inactive; ? = inconclusive; . = no result given; [ ] = remark or other dose. Unless noted, calls follow the shape of the dose curve; as a rule, active = well fitted curve in the direction sought with a large enough effect; inconclusive = small, poorly fitted or top-dose-only effect, or another doubt; inactive = no such curve, though single readings can be large; an effect the other way counts as inactive or inconclusive.
1. N#Cc1cccc(-c2nc3cnc(N4CCNCC4)nc3n(C3CC3)c2=O)c1
2. COc1ccc(-c2cc3ccc(OCc4nn[nH]n4)cc3oc2=O)cc1
3. COc1cc(NS(C)(=O)=O)ccc1Nc1c2ccccc2nc2ccccc12
4. O=C(COC(=O)c1cc(-c2cccs2)nc2ccccc12)NCc1ccco1
5. CCCC1C2CN(C(C)C)CC=C2C(C#N)=C(N)C1(C#N)C#N (stereo unspecified)
6. CCc1nnc(NC(=O)CCC(=O)N2CCN(CCOc3ccc(C)cc3)CC2)s1
7. COc1cccc(Cn2c(=O)c(-c3cc(F)cc(F)c3)nc3cnc(N(C)C)nc32)c1
8. COc1cccc(Cn2c(=O)c(-c3ccc(Cl)cc3)nc3cnc(N4CCNCC4)nc32)c1
Compound,1,2,3,4,5,6,7,8
BRCT PPI green,-4.7%,-0.9%,-2.6%,-2.0%,-23%,1.7%,4.0%,-0.2%
BRCT PPI red,-2.2%,1.2%,0.5%,0.2%,-4.2%,0.5%,-1.6%,-1.3%
Fluorescein autfl,?,?,i,i,5.1e-08M*,i,?,i
UbGFP stabilizer,-4%,-2%,-3%,-3%,-1%,-2%,1%,1%
USP2a inhib,1%,8%,7%,34%[activator],-2%,28%,79%[activator],?
HEK293 cAMP cs,?,1%,?,18%,?,-16%,?,-15%
GFP derepression,-5%[9.22 µM],-1%,0%,-2%,-1%,3%,-1%[9.22 µM],2%[9.22 µM]

9. N#CC1=C2C=CC=CN2CC1=O
10. CCNc1ncc2nc(C)c(=O)n(C[C@H]3CCCO3)c2n1
11. CCS(=O)(=O)NCc1ccc2[nH]c3c(c2c1)CCCC3
12. C=CCn1c(N)c(S(=O)(=O)c2cccs2)c2nc3ccccc3nc21
13. CCNc1ncc2nc(-c3cccs3)c(=O)n(C[C@H]3CCCO3)c2n1
14. CN1CCN(c2ncc3nc(-c4cccs4)c(=O)n(Cc4ccc(F)cc4)c3n2)CC1
15. CCNc1ncc2nc(-c3ccc(Cl)cc3)c(=O)n(C)c2n1
16. CNC(=O)c1cc2c(=O)n3cc(C)ccc3nc2n(Cc2ccco2)c1=N
Compound,9,10,11,12,13,14,15,16
BRCT PPI green,16%,-1.1%,-3.8%,5.3%,-4.5%,15%,-1.8%,-2.6%
BRCT PPI red,-0.1%,-0.1%,-0.4%,-0.6%,1.6%,-1.6%,-0.2%,-5.1%
Fluorescein autfl,i,i,?,i,?,?,i,?
UbGFP stabilizer,2%,4%,0%,-4%,5%,?,1%,-1%
USP2a inhib,-5%,-13%,34%[activator],7%,116%[activator],89%[activator],140%[activator],-6%
HEK293 cAMP cs,-4%,12%,3%,6%,?,?,20%,2%
GFP derepression,0%,0%[9.22 µM],2%,-2%,10%[9.22 µM],4µM*,5%[9.22 µM],4%

17. Cc1cccn2c(=O)c3cc(C(=O)NCc4cccnc4)c(=N)n(C(C)C)c3nc12
18. COC(=O)c1ccc(C2C(C#N)=C(C)NC3=C2C(=O)CC(C)(C)C3)cc1 (stereo unspecified)
19. CN(C)c1ncc2ncc(=O)n(Cc3ccc(F)cc3)c2n1
20. COCCn1c(=O)c(-c2cc(F)cc(F)c2)nc2cnc(Oc3ccccc3)nc21
21. O=c1c(-c2cccs2)nc2cncnc2n1Cc1ccc(F)cc1
22. CCNc1ncc2nc(-c3cccc(C#N)c3)c(=O)n(CCC#N)c2n1
23. N#Cc1c(N)sc(=S)c2c1CCN(Cc1ccccc1)C2
24. O=c1c(-c2ccccc2)nc2cnc(N3CCNCC3)nc2n1Cc1ccc(F)cc1
Compound,17,18,19,20,21,22,23,24
BRCT PPI green,-1.4%,-1.1%,1.9%,0.8%,0.1%,19%,-5.8%,-1.3%
BRCT PPI red,0.8%,-1.6%,0.7%,0.1%,-2.4%,0.7%,-9.2%,-0.1%
Fluorescein autfl,i,i,i,i,?,i,?,i
UbGFP stabilizer,-3%,-3%,-10%,3%,8%,8%,1%,8%
USP2a inhib,11%,2%,18%,14%,75%[activator],56%[activator],19%,63%[activator]
HEK293 cAMP cs,-37%[inhibitor],13%,?,26%,-1%,6%,1%,7%[0.457 µM]
GFP derepression,3%,8%,0%[9.22 µM],5%[9.22 µM],0%[9.22 µM],0%[9.22 µM],14%,0%[9.22 µM]

# Of the compounds above, 2 contain an NH in an aromatic ring:
2. COc1ccc(-c2cc3ccc(OCc4nn[nH]n4)cc3oc2=O)cc1
11. CCS(=O)(=O)NCc1ccc2[nH]c3c(c2c1)CCCC3
Compound,2,11
BRCT PPI green,-0.9%,-3.8%
BRCT PPI red,1.2%,-0.4%
Fluorescein autfl,?,?
UbGFP stabilizer,-2%,0%
USP2a inhib,8%,34%[activator]
HEK293 cAMP cs,1%,3%
GFP derepression,-1%,2%

# Additional structures
25. COc1ccc(-c2nc3cnc(N(C)C)nc3n(C)c2=O)cc1
26. COc1cccc(Cn2c(=O)c(-c3cccs3)nc3cnc(Nc4ccccc4)nc32)c1
27. COCCn1c(=O)c(-c2ccc(Cl)cc2)nc2cnc(N3CCNCC3)nc21
28. COc1ccc2[nH]c(=O)c(CN(Cc3ccco3)Cc3nnnn3Cc3ccccc3)cc2c1
29. CN(C)c1ccc(/C=C/C(O)=C2/C(=O)N(C)C3(C)CC2c2ccccc2O3)cc1 (stereo unspecified)
30. CCN1CCCC1CN=Cc1c(O)n(-c2ccccc2)c(=O)c2ccccc12 (stereo unspecified)
31. CN1CCc2c(sc3c2c(NCc2ccco2)nc2nnnn23)C1
32. Cc1ccc2nc3c(cc(C(=O)NCc4ccccc4)c(=N)n3CCCn3ccnc3)c(=O)n2c1
Compound,25,26,27,28,29,30,31,32
BRCT PPI green,2.0%,8.8%,-1.5%,0.3%,36%[activator],-2.3%,-1.6%,26%
BRCT PPI red,-0.1%,-1.2%,0.5%,-0.8%,0.1%,-1.8%,-0.6%,-0.1%
Fluorescein autfl,i,?,i,?,1.6e-08M*,?,?,?
UbGFP stabilizer,-6%,1%,6%,-2%,-14%,-3%,3%,-2%
USP2a inhib,14%,184%[activator],78%[activator],25%,12%,6%,28%,20%
HEK293 cAMP cs,3%[0.457 µM],?,-11%,-8%,12%,5%,3%,3%
GFP derepression,0%[9.22 µM],0%[9.22 µM],0%[9.22 µM],-2%,17%,4%,2%,0%

# Part of the list above, as labelled records:
27	COCCn1c(=O)c(-c2ccc(Cl)cc2)nc2cnc(N3CCNCC3)nc21
- BRCT PPI green = -1.5%
- BRCT PPI red = 0.5%
- Fluorescein autfl = i
- UbGFP stabilizer = 6%
- USP2a inhib = 78%[activator]
- HEK293 cAMP cs = -11%
- GFP derepression = 0%[9.22 µM]
28	COc1ccc2[nH]c(=O)c(CN(Cc3ccco3)Cc3nnnn3Cc3ccccc3)cc2c1
- BRCT PPI green = 0.3%
- BRCT PPI red = -0.8%
- Fluorescein autfl = ?
- UbGFP stabilizer = -2%
- USP2a inhib = 25%
- HEK293 cAMP cs = -8%
- GFP derepression = -2%
29	CN(C)c1ccc(/C=C/C(O)=C2/C(=O)N(C)C3(C)CC2c2ccccc2O3)cc1 (stereo unspecified)
- BRCT PPI green = 36%[activator]
- BRCT PPI red = 0.1%
- Fluorescein autfl = 1.6e-08M*
- UbGFP stabilizer = -14%
- USP2a inhib = 12%
- HEK293 cAMP cs = 12%
- GFP derepression = 17%

# Later entries.
33. COc1ccc(-n2c(=O)c(-c3ccc(F)cc3)nc3cnc(N4CCOCC4)nc32)cc1
34. Cc1cccc2cc(C#N)c(NCCCn3ccnc3)nc12
35. Nc1c(C(=O)NC2CCCC2)sc2nc(-c3cccs3)ccc12
36. C=CCNS(=O)(=O)c1cccc2cc(C(=O)O)c(O)cc12
37. CCc1c(C)c2cc(Cl)c(O)c(CN(C)C)c2oc1=O
38. COc1ccc(-c2nc3cnc(N4CCN(C)CC4)nc3n(Cc3ccc(F)cc3)c2=O)cc1
39. COCCn1c(N)c(C(=O)NCc2cccs2)c2nc3ccccc3nc21
40. COc1ccccc1NC(=O)C1=C(C)NC(SCC(=O)c2ccccc2)=C(C#N)C1c1ccco1 (stereo unspecified)
Compound,33,34,35,36,37,38,39,40
BRCT PPI green,-0.9%,0.1%,3.9%,-1.5%,-1.4%,-1.8%,-1.8%,18%
BRCT PPI red,-1.1%,-1.7%,-0.2%,0.8%,-0.3%,0.1%,-4.6%,0.2%
Fluorescein autfl,?,i,?,?,i,i,i,?
UbGFP stabilizer,-9%,2%,12%,1%,2%,4%,0%,1%
USP2a inhib,78%[activator],9%,227%[activator],2%,-3%,159%[activator],34%[activator],36%[activator]
HEK293 cAMP cs,28%,?,-15%,5%,2%,6%,20%,15%
GFP derepression,5%[9.22 µM],0%,?,0%,3%,2%[9.22 µM],-1%,-1%

41. O=c1[nH]c(=O)n(C2CC(O)C(CO)O2)cc1C(F)(F)F (stereo unspecified)
42. CN(C)Cc1ccccc1-c1cc(NCc2ccccc2)ncn1
43. CCOC(=O)/C=c1\s/c(=C\c2ccc3c(c2)OCCO3)c(=O)n1CC(=O)NCC1CCCO1 (stereo unspecified)
44. Nc1ccc(O)c(C(=O)O)c1
45. O=c1c(-c2ccccc2)nc2cnc(N3CCNCC3)nc2n1-c1ccccc1
46. COc1ccc(-n2c(=O)c(-c3cccs3)nc3cnc(Nc4ccccc4)nc32)cc1
47. O=C(c1cccn2c(=O)c3ccc(Cl)cc3nc12)N1CCN(Cc2ccc3c(c2)OCO3)CC1
48. Cn1c(C(=O)NCc2ccccn2)cc2c(=O)n3ccccc3nc21
49. COCCn1c(=O)c(-c2cc(F)cc(F)c2)nc2cnc(Nc3cccc(OC)c3)nc21
50. CCNC(=O)c1cc2c(=O)n3cccc(C)c3nc2n(Cc2ccc(C)cc2)c1=N
Compound,41,42,43,44,45,46,47,48,49,50
BRCT PPI green,-1.4%[3.08 µM],1.8%,18%,-2.9%,-0.4%,80%[activator],-1.2%,-0.6%,43%[activator],-1.0%
BRCT PPI red,0.2%,-2.7%,2.3%,?,-0.4%,1.2%,2.0%,1.6%,0.2%,0.9%
Fluorescein autfl,.,i,?,?,i,?,?,i,?,?
UbGFP stabilizer,.,-3%,-3%,13%[20.5 µM],2%,20%,13%,-11%,2%,4%
USP2a inhib,11%,12%,30%[activator],-4%[17.1 µM],55%[activator],48%[activator],36%[activator],4%,139%[activator],15%
HEK293 cAMP cs,.,?,-12%,20%,10%,0%,3%,?,-3%,-80%[inhibitor]
GFP derepression,.,-3%[9.22 µM],0%,2%[20.6 µM],5%[9.22 µM],-3%[9.22 µM],0%,-1%,5%[9.22 µM],20%

# Some of the compounds tested. The share of hits here may be higher or lower than overall.
